Screening data (PubChem)
Marburg entry inh: qHTS for inhibitors of binding or entry into cells for Marburg Virus; Potency, µM (doses to about 37.8 µM), without a hit: top-dose activity change, negative = inhibition, actives largely listed as inhibitors; 300,000 tested, 1.8% active; Marburg virus pseudotyped entry inhibition, cell reporter; control for the full effect not named in the record; about a third of the inactives were read at about 46 µM; AID 540276, 2011; active = well fitted inhibition curve with a large enough effect; inconclusive = small, poorly fitted or top-dose-only effect, or effect the other way; inactive = flat fitted curve, though single readings scatter; tested in HEK293 cells; about a fifth of its hits are not listed in these tables; further: on the % scale 0 is the no-effect control and ±100 the full control effect; luciferase read-out
RE007 growth inh: qHTS Assay for Inhibitors of the HIV-1 protein Vpr; S. pombe RE007 Vpr strain, BacTiter-Glo ATP luminescence, 24 h; control for the full effect not named in the record; Potency, µM (titrated, usually from 92.2 µM), inactives show top-dose activity change, negative = less growth; 360,000 tested, 0.21% active; AID 651644, 2012; active = well fitted falling curve with a large enough effect; inconclusive = small, poorly fitted or top-dose-only effect; inactive = no such curve, though single readings can be large or run the other way;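 further: on the % scale 0 is the no-effect control and ±100 the full control effect; nearly all actives have a fitted effect of over 50% in size; the assay follows cell death caused by Vpr and the record does not say whether a fall means rescue or toxicity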
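Fission yeast strain RE007, carrying one chromosomally integrated HIV-1 vpr copy, was seeded at OD 0.01 in PMG+AL medium with 23 nL pinned compound. After 24 h at 30 °C and 99% humidity, viability was read by BacTiter-Glo luminescence.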
2A StopGo: High Throughput Screening for Foot and Mouth Disease Virus Antivirals | human cells with a luciferase reporter of 2A StopGo recoding; control for the full effect not named in the record | Potency, µM (highest dose often 57.9 µM), inactives show at the highest dose signal change, negative = less light | 410,000 tested, 1.2% active; active = well fitted falling curve with a large enough effect; inconclusive = small, poorly fitted or top-dose-only effect; inactive = no such curve, though single readings can be large or run the other way; tested in HEK293T cells; further: on the % scale 0 is the no-effect control and ±100 the full control effect; nearly all actives have a fitted effect of over 45% in size; luciferase light after 4 h
Cruzain inh noDet: qHTS Assay for Promiscuous and Specific Inhibitors of Cruzain (without detergent); 200,000 tested, 2.3% active; Potency, µM, inactives show max response, negative = inhibition, actives largely listed as inhibitors; purified cruzain, Z-FR-AMC fluorescence, no detergent; AID 1476, 2009;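 further: plate controls were enzyme without inhibitor for no effect and buffer without enzyme for full effect; nearly all actives have a fitted effect of over 40% in size; top concentration of the series not given in the record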
Target sequence (P25779 123-467 limits assumed): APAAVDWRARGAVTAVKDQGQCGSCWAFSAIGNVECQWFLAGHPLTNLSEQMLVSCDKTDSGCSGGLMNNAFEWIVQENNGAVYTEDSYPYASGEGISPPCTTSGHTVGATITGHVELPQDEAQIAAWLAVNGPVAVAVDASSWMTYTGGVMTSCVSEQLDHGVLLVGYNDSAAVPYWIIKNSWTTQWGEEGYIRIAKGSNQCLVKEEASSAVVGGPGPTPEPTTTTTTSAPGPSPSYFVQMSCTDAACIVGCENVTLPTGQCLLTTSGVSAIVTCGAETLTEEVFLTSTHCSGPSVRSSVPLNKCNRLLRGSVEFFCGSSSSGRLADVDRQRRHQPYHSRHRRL
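Purified cruzain at 1.5 nM, pre-incubated 15 min with compound at room temperature in 100 mM sodium acetate pH 5.5, 5 mM DTT, 0.00005% Triton X-100. Reaction started with 2 uM Z-FR-AMC; AMC fluorescence increase over 60 s gives rate.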
Cruzain inh Det: qHTS Assay for Promiscuous and Specific Inhibitors of Cruzain (with detergent). purified cruzain, Z-FR-AMC fluorescence, 0.01% Triton. Potency, µM, for inactives: max response, negative = inhibition, hits mostly inhibitors. Cruzipain (Trypanosoma cruzi), P25779. 200,000 tested, 0.43% active;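 further: plate controls were neutral wells for no effect and buffer without enzyme for full effect; nearly all actives have a fitted effect of over 40% in size; top concentration of the series not given in the record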
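Cruzain (1.5 nM) preincubated 15 min at RT with compound in 100 mM sodium acetate pH 5.5, 5 mM DTT, 0.01% Triton X-100. Reaction started with 2 uM Z-FR-AMC; AMC fluorescence (ex 360/em 450 nm) change over 60 s gave rate.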
Lassa entry inh: qHTS for Inhibitors of binding or entry into cells for Lassa Virus; 300,000 tested, 1.2% active; AID 540256, 2011; Potency, µM (top dose mostly 37.9 µM), for inactives: at the highest dose activity change, negative = inhibition, most hits filed as inhibitors; Lassa virus pseudotype entry inhibition, cell reporter; control for the full effect not named in the record; active means well fitted inhibition curve with a large enough effect; inconclusive means small, poorly fitted or top-dose-only effect, or effect the other way; inactive means flat fitted curve, though single readings scatter; tested in HEK293 cells; further: on the % scale 0 is the no-effect control and ±100 the full control effect; nearly all actives have a fitted effect of over 50% in size; luciferase read-out
NS1 inh: qHTS Assay for Inhibitors of Influenza NS1 Protein Function. Potency, µM (series often up to 46.1 µM), for the others: top-dose activity, positive = more growth. 270,000 tested, 0.4% active. S. cerevisiae slowed by influenza A NS1, growth recovery by OD600; active means well fitted rising curve with a large enough effect; inconclusive means small, poorly fitted or top-dose-only effect; inactive means no such curve, though single readings can be large or run the other way; further: nearly all actives have a fitted effect of over 50% in size
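OD600 was taken as the measure of yeast growth restored by compound in an NS1-expressing S. cerevisiae strain. Cells had been washed out of glucose medium and diluted 1:100 into galactose -URA medium, pH 6.0.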
SARS PLP yeast: qHTS of Yeast-based Assay for SARS-CoV PLP. S. cerevisiae expressing SARS-CoV PLpro, growth rescue; control for the full effect not named in the record. Potency, µM (top dose mostly 32.9 µM), for the others: top-dose activity, positive = growth rescue. 330,000 tested, 0.19% active; active means well fitted rising curve with a large enough effect; inconclusive means small, poorly fitted or top-dose-only effect; inactive means no such curve, though single readings can be large or run the other way; further: 0% is about no effect; nearly all actives have a fitted effect of over 55% in size; growth read by luminescence after 48 h
An asterisk follows results filed as active; ? = inconclusive; . = no result given; [ ] = dose if it differs, or a comment. Unless noted, the call rests on the fitted dose curve; in most records, active means well fitted curve in the direction sought with a large enough effect; inconclusive means small, poorly fitted or top-dose-only effect, or another doubt; inactive means no such curve, though single readings can be large; an effect the other way counts as inactive or inconclusive. Potency means the concentration at half of the fitted maximal effect.

SMILES	Marburg entry inh	RE007 growth inh	2A StopGo	Cruzain inh noDet	Cruzain inh Det	Lassa entry inh	NS1 inh	SARS PLP yeast
CCC1(NC(C)=O)CC2CC1CC2NC(C)=O (stereo not given)	30%	11%	14%	-1%	-0.9%	12%	2%	0%
COc1ccccc1CCNC(=O)CSc1nc(-c2ccco2)cc(C(F)(F)F)n1	-5%	-2%	0%	-7%	1.1%	.	1%	?
CCN(CC)CCCNC(=O)C(=O)Nc1ccc2nc3n(c(=O)c2c1)CCCCC3	-3%[46.1 µM]	.	-7%	-3%	-2.6%	4%[46.1 µM]	.	.
COc1ccc(CCNC(=O)c2ccc3c(c2)N(Cc2ccc(Cl)cc2)C(=O)c2ccccc2S3)cc1OC	.	.	-9%	?	0.6%	-29%[46.1 µM]	.	.
Cc1cccc(C)c1N(CC(=O)NCc1ccccc1)C(=O)c1csnn1	-2%[46.1 µM]	12%	-8%	.	.	-16%[46.1 µM]	2%	-1%
O=C(NCc1ccc(Cl)cc1)c1ccc(N2CCCC2=O)cc1	?	-10%	18%	.	.	5%[46.1 µM]	.	2%
Cc1nnc(N(C)C(=O)Cc2ccc3c(c2)OCO3)s1	4%[46.1 µM]	4%	-7%	-2%	3.6%	2%	-6%	-17%
Cc1ccc(S(=O)(=O)Nc2ccc(NC(=O)/C=C/C(=O)O)cc2)cc1	-21%[46.1 µM]	-19%	-10%	.	.	11%[46.1 µM]	10%	0%
Cn1c(=O)c2c(nc(CN3CCN(C(=O)c4ccco4)CC3)n2Cc2ccc(Cl)cc2)n(C)c1=O	18%	17%[3.69 µM]	-8%	?	-0.3%	-1%	-11%	-6%
COc1cc(CNCc2ccccc2)ccc1OCC(O)c1ccccc1 (stereo not given)	.	-27%	-15%	.	.	.	2%	2%
COCCNC(=O)C(c1cccs1)N(C(=O)Cn1nnc2ccccc21)c1ccccc1 (stereo not given)	20%	-21%	14%	1%	7.8%	6%	-8%	3%
O=C(Nc1ccc(C(F)(F)F)cc1)C1CCN(S(=O)(=O)c2ccc(N3CCCC3=O)cc2)CC1	.	-8%	?	.	.	.	0%	17%
CN(C)c1nc(N)nc(CSc2ncc(Cl)cc2Cl)n1	6%	-18%	30%	1%	-4.6%	14%	-99%	-30%
NC(=O)C1CCN(c2ncccc2[N+](=O)[O-])CC1	?	1%	-8%	.	.	-3%	.	1%
O=C(Cn1c(=S)[nH]c2ccccc2c1=O)N1CCc2ccccc2C1	?	13%	-1%	.	.	0%	.	1%
CCSc1nsc(NC(=O)Nc2cccc(C(C)=O)c2)n1	10µM*	-19%	?	.	.	?	-7%	4%
CCN(CC)c1ccc(/C=N/NC(=O)c2cccc(S(=O)(=O)Nc3ccccc3OC)c2)c(O)c1	5.6µM*	-1%	-1%	20µM*	-3.8%	0.32µM*	24%	1.8µM*
COc1ccc(C(=O)N[C@H](C(=O)OCc2nc3ccsc3c(=O)[nH]2)C(C)C)cc1	2%	8%	-10%	.	.	?	.	2%
O=C(CN1C(=O)NC2(CCCc3ccccc32)C1=O)c1ccc(F)c(F)c1 (stereo not given)	-26%[46.1 µM]	9%	5%	.	.	15%[46.1 µM]	.	-5%
O=C(c1ccc(OC2CCN(CCCc3ccccc3)CC2)cc1)N1CCCC1	?	1%	2%	.	.	2%[46.1 µM]	.	.
CCCCCCCN1CCC(=O)N([C@H](CO)CC(C)C)CC1	.	-2%	-15%	.	.	.	6%	-9%
COc1cc(OC)cc(-c2nnc(SCC(=O)NCc3cccs3)o2)c1	6%	3%	.	1%	1.6%	1%	-2%	-10%
NS(=O)(=O)c1ccc(NC(=S)N2CCN(Cc3ccc(Cl)c(Cl)c3)CC2)cc1	?	-2%	?	.	.	-5%[46.1 µM]	-4%	0%
Cc1ccc2c(c1)N=C(c1ccccc1)CC(C(Cl)Cl)=N2	?	-13%	13%	.	.	?	-31%	-2%
COCCn1c(C)cc(C(=O)COc2ccc(N(C)S(=O)(=O)c3ccc(C)cc3)cc2)c1C	?	5%	-14%	.	.	?	.	4%
O=C(c1n[nH]c(=O)c2ccccc12)N1CCN(Cc2ccc3c(c2)OCO3)CC1	-22%[46.1 µM]	-9%	?	.	.	0%	?	4%
COC(=O)C1(C)NC(=O)c2ccccc2N1 (stereo not given)	.	2%	-6%	-7%	-1.8%	.	3%	3%
CCN1CCN(c2ccc(S(=O)(=O)N3CCCCC3)cc2NC(=O)c2ccc(F)cc2)CC1	?	-3%	-7%	-10%	-2.1%	11%	6%	-12%
CCOc1ccc(C=NNc2ccc(S(=O)(=O)Nc3ccccc3C(=O)O)cc2[N+](=O)[O-])cc1	?	7%	-17%	.	.	5%[46.1 µM]	.	5%
COc1ccc(OC(C)C(=O)Nc2cccc([N+](=O)[O-])c2)cc1 (stereo not given)	?	1%	-24%	-3%	-3.9%	-17%	-20%	2%
CCCC(CCC)C(=O)Nc1cccc(-c2nc3cccnc3s2)c1C	.	.	-2%	-7%	-1.4%	?	.	.
O=C1CCCN1c1cc(Cl)cc(Cl)c1	?	4%	-8%	.	.	18%	.	1%
O=C(Oc1ccc(C(=S)N2CCOCC2)cc1)c1ccc(F)cc1	-20%	9%	7%	.	.	0%	27%	2%
C/C(CC(=O)Nc1ccc(Cl)cc1Cl)=N\NC(=O)c1cnccn1	?	-12%	10%	.	.	15%[46.1 µM]	10%	-2%
Cc1nn(Cc2ccc(Br)cc2)c(C)c1NC(=O)c1nn(C)cc1Cl	-3%	2%	-29%	9%	6.9%	4%	-10%	-7%
O=C(COC(=O)c1ccc[nH]c1=O)NC1CCCC1	22%	14%	-20%	-5%	1.3%	13%	3%	-6%
CCc1ccc(OCC(=O)NC(=S)Nc2ccc(F)cc2)c(Br)c1	4%	7%	.	?	3.9%	8%	7%	2%
c1ccc(-n2nnc3c(N4CCOCC4)ncnc32)cc1	2.3µM*	-19%	-85%	2%	2.9%	5.2µM*	-51%	-1%
Nc1ccccc1-c1nc2ccccc2[nH]c1=O	.	-6%	49%[activator]	.	.	.	0%	-1%
COC(=O)C1=C(C(C)=O)C(c2ccc(C)cc2)n2nnnc2N1 (stereo not given)	-28%[46.1 µM]	13%	9%	-7%	3.7%	?	7%	-7%
N#C/C(=C\c1c(Oc2ccc(Br)cc2)nc2ccccn2c1=O)c1nc2ccccc2s1	-17%[46.1 µM]	.	27%	-17%	-17%	-18%[46.1 µM]	.	.
OCC1CCCN(C(=S)Nc2ccc(Oc3ccccc3)cc2)C1 (stereo not given)	?	1%	0%	.	.	?	1%	-2%
CCCCC1CCC(C(=O)OCC(=O)Nc2ccc(S(N)(=O)=O)cc2)CC1 (stereo not given)	1%	1%	-14%	0%	-9.0%	6%	-7%	5%
CN(C(=O)COc1cc(=O)n(C)c2ccccc12)c1cccc(Cl)c1	.	10%	-24%	3%	-1.5%	.	-8%	1%
c1ccc(C2CC3CC4(CCCC4)N2O3)cc1 (stereo not given)	19%	9%	22%	14%	7.2%	?	11%	-7%
CCOCCCNC(=O)Cn1cnc2c(cnn2-c2ccc(OC)cc2)c1=O	6%[46.1 µM]	0%	4%	.	.	?	6%	-4%
CSc1nc(-c2cccs2)c(C#N)c(=O)[nH]1	10%[46.1 µM]	-7%	-14%	.	.	1%	-2%	1%
CC(NC(=O)CNC(=S)N(Cc1cccs1)C1CCCC1)c1ccccc1 (stereo not given)	?	8%	38%[activator]	.	.	-20%[46.1 µM]	.	-1%
Cn1c(=O)[nH]c(=O)c2c1nc(N1CCOCC1)n2CCN1CCOCC1	2%	11%	-3%	-3%	2.1%	16%	11%	3%
CC1CCN(CCCNc2cc(NCCO)c([N+](=O)[O-])c3nonc23)CC1	-2%[46.1 µM]	0%	10%	.	.	24%[46.1 µM]	2%	1%

(cont.)
SMILES	Marburg entry inh	RE007 growth inh	2A StopGo	Cruzain inh noDet	Cruzain inh Det	Lassa entry inh	NS1 inh	SARS PLP yeast
O=C1C(Cl)=C(NC2CCCCC2)C(=O)N1Cc1ccccc1	?	1%	-19%	.	.	6%	.	-12%
O=C(NCC1COc2ccccc2O1)C1CCCN(S(=O)(=O)c2cccc3cccnc23)C1 (stereo not given)	-10%	-3%	?	-4%	-1.8%	.	-41%	10%
CCCS(=O)(=O)c1nc(S(=O)(=O)c2ccc(C)cc2)c(N2CCN(CCO)CC2)s1	.	-20%	-2%	.	.	.	-14%	4%
CC1CN(C(=O)N2CCC(C(=O)NC3CCCCCC3)CC2)c2cc(Cl)ccc2O1 (stereo not given)	.	.	-19%	-19%	-6.3%	?	.	.
OC1(c2ccc(Br)cc2)CN(c2ccccc2)C2=[N+]1CCS2 (stereo not given)	?	4%	?	.	.	?	.	1%
COc1ccc(Cl)cc1NC(=O)CN(C)CC(=O)Nc1ccccc1N1CCOCC1	?	-3%	-24%	.	.	?	.	1%
CCCn1nnc(NC(=S)NC(=O)CC)n1	18%	5%	13%	-3%	4.0%	-3%	-2%	10%
CN1C(=O)Cc2cc(S(=O)(=O)CCC(=O)Nc3ccc(Cl)cc3)ccc21	.	.	30%	-4%	0.7%	20%[46.1 µM]	.	.
COc1ccc(-c2cn3cccnc3n2)cc1NC(=O)c1c(F)cccc1F	.	.	16%	5%	-5.5%	?	.	.
Cn1c(C(=O)N2CCCc3ccccc32)cc2c(=O)n3ccccc3nc21	1%	.	.	5%	-3.5%	.	-41%	-28%
CC(C)(C)C(=O)Nc1ccc(S(=O)(=O)N2CC3CC(C2)c2cccc(=O)n2C3)cc1 (stereo not given)	6%	-7%	-8%	.	.	12%	13%	-1%
CCCN1CCN(CCNC(=O)Nc2ccccc2Cl)CC1	-5%[46.1 µM]	12%	10%	.	.	21%[46.1 µM]	0%	-2%
O=S(=O)(N/N=C\C=C\c1ccccc1)c1ccc(Cl)cc1	-5%	-2%	31%[activator]	-5%	-17%	-18%	-84%	-21%
O=C(Cn1cc(C(F)(F)F)ccc1=O)N/N=C/c1ccc(Cl)cc1Cl	4%	10%	-23%	?	-1.1%	20%	19%	16%
